Assay outcomes as filed in PubChem BioAssay.
NPYLR7 agonist: mosquito NPYLR7 agonism | HEK293T NPYLR7/Galpha15, GCaMP6s calcium fluorescence | activation, % at 10 µM | 0.15% of 270,000 active; in the data active means activation above about 40%;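 further: 0% = vehicle and 100% = reference agonist at the receptor; some compounds past the cut are filed as inactive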
NPYLR7 agonist max-min: recorded beside NPYLR7 agonist, whose call it bears; activation, %; measured here: Max-Min RFU normalised activation; some inactives read as strong as hits;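 span of the calcium signal over five minutes; 0% = vehicle and 100% = native peptide agonist; compound fluorescence can raise it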
Numbers without * were called inactive; & = joins results of further samples.

SMILES | NPYLR7 agonist | NPYLR7 agonist max-min
Cc1cc(=O)[nH]c(Sc2c(C)c3cc4c(cc3[nH]c2=O)OCO4)n1 | 0 | -3
Cc1cc(C)c(C)c(S(=O)(=O)NCC(=O)NCC2CCCO2)c1C (stereo not given) | -1 | 5
Cc1ccc(C)c(OCCNC(=O)c2cc(=O)[nH][nH]2)c1 | 3 | 0
O=C(CN1CCc2sccc2C1)N1CCN(C2CCCC2O)CC1 (stereo not given) | 3 | 2
CCCOc1c(Cl)cc(C=CC(=O)N(C)C2CCS(=O)(=O)C2)cc1OC (stereo not given) | -1 | 36
c1ccc(CN2CCC(n3ccnc3-c3cnc[nH]3)C2)cc1 (stereo not given) | -3 | 7
O=c1c(=Cc2ccncc2)sc2n1CN(c1ccc(I)cc1)CN=2 | -11 | -17
CCCC(c1ccccc1)n1ccnc1-c1nccn1C (stereo not given) | 3 | 1
O=c1c2sccc2nc(SCCO)n1-c1ccccc1 | 2 | -1
NC1(C(=O)O)CCN(Cc2ccccc2-c2ccco2)C1 (stereo not given) | 5 | -2
O=S1(=O)c2cccnc2OC(COc2ccccc2)CN1Cc1cccs1 (stereo not given) | 14 | 23
CCC(C)C(NCC(O)Cc1ccccc1)c1nc(-c2ccc3c(c2)OCO3)no1 (stereo not given) | -3 | 0
Cc1c(CN(C)C(=O)C(=O)c2ccco2)cnn1C | 12 | 3
CSc1ccc(CN2CCC(C)(Oc3cnc(Cl)c4ccccc34)C2)cc1 (stereo not given) | 4 | -1
CCN1C(=O)NC(c2cc([N+](=O)[O-])ccc2O)C(C(=O)OC)=C1C (stereo not given) | 2 | 9
Cc1ccc(OCc2nc(C(=O)NCc3ccccn3)cs2)cc1C | 13 | 9
COc1cccc(NC(=O)N2CCN(c3nc(-c4cccc(C)c4)nc(C)c3C(C)C)CC2)c1 | -1 | 3
CCN(CC(=O)Nc1ccc(OC)cc1)Cc1noc2c1CCCC2 | 0 | -2
Cc1ccsc1[C@@H]1CCN(C(=O)CCCn2cncn2)C[C@H]1O | 9 | 7
Cc1cc(C)n(-c2cccc(CN3CCCC4(CC3)CNC(=O)O4)c2)n1 (stereo not given) | 17 | 6
CN(CCNC(=O)C(F)(F)F)C(=O)C1CCCCN1Cc1ccc(-n2ccnc2)cc1 (stereo not given) | 8 | 10
CCOC(=O)N1CCN(c2nc(NCCO)c3cnn(-c4ccc(Cl)cc4)c3n2)CC1 | 2 | -2
O=S(=O)(c1ccc(Br)cc1Br)N1CCCCC1 | 1 | 4
CCOC(=O)C1CSCCN1C(=O)COc1ccccc1C (stereo not given) | 5 | 4
O=C(CN(C1CC1)S(=O)(=O)c1cc(Cl)ccc1Cl)N(Cc1ccc(F)cc1)Cc1cccs1 | -4 | 3
Cc1[nH]c2ccccc2c1CC(=O)NCc1ccc(CN2CCCC2)cc1 | -7 | -8
O=c1nc(SCc2cccnc2)c2c([nH]1)CCC2 | 0 | -3
CC1(C(=O)Nc2nccs2)CCN1C(=O)CCc1cccs1 (stereo not given) | 7 | 4
COc1ccc(-c2nnc(NC(=O)c3ccccc3C)s2)cc1OC | -9 | -13
Cc1nc2cc(NC(=O)C(C)Oc3ccc(Cl)cc3)ccc2o1 (stereo not given) | 6 | 4

19 entries from above, with values under each structure:
Order of values: NPYLR7 agonist | NPYLR7 agonist max-min
- CCC(C)C(NCC(O)Cc1ccccc1)c1nc(-c2ccc3c(c2)OCO3)no1 (stereo not given)
    -3 | 0
- Cc1c(CN(C)C(=O)C(=O)c2ccco2)cnn1C
    12 | 3
- CSc1ccc(CN2CCC(C)(Oc3cnc(Cl)c4ccccc34)C2)cc1 (stereo not given)
    4 | -1
- CCN1C(=O)NC(c2cc([N+](=O)[O-])ccc2O)C(C(=O)OC)=C1C (stereo not given)
    2 | 9
- Cc1ccc(OCc2nc(C(=O)NCc3ccccn3)cs2)cc1C
    13 | 9
- COc1cccc(NC(=O)N2CCN(c3nc(-c4cccc(C)c4)nc(C)c3C(C)C)CC2)c1
    -1 | 3
- CCN(CC(=O)Nc1ccc(OC)cc1)Cc1noc2c1CCCC2
    0 | -2
- Cc1ccsc1[C@@H]1CCN(C(=O)CCCn2cncn2)C[C@H]1O
    9 | 7
- Cc1cc(C)n(-c2cccc(CN3CCCC4(CC3)CNC(=O)O4)c2)n1 (stereo not given)
    17 | 6
- CN(CCNC(=O)C(F)(F)F)C(=O)C1CCCCN1Cc1ccc(-n2ccnc2)cc1 (stereo not given)
    8 | 10
- CCOC(=O)N1CCN(c2nc(NCCO)c3cnn(-c4ccc(Cl)cc4)c3n2)CC1
    2 | -2
- O=S(=O)(c1ccc(Br)cc1Br)N1CCCCC1
    1 | 4
- CCOC(=O)C1CSCCN1C(=O)COc1ccccc1C (stereo not given)
    5 | 4
- O=C(CN(C1CC1)S(=O)(=O)c1cc(Cl)ccc1Cl)N(Cc1ccc(F)cc1)Cc1cccs1
    -4 | 3
- Cc1[nH]c2ccccc2c1CC(=O)NCc1ccc(CN2CCCC2)cc1
    -7 | -8
- O=c1nc(SCc2cccnc2)c2c([nH]1)CCC2
    0 | -3
- CC1(C(=O)Nc2nccs2)CCN1C(=O)CCc1cccs1 (stereo not given)
    7 | 4
- COc1ccc(-c2nnc(NC(=O)c3ccccc3C)s2)cc1OC
    -9 | -13
- Cc1nc2cc(NC(=O)C(C)Oc3ccc(Cl)cc3)ccc2o1 (stereo not given)
    6 | 4

The list goes on:
SMILES | NPYLR7 agonist | NPYLR7 agonist max-min
CN(C)C(C(=O)Nc1nccs1)c1c(F)cccc1Cl (stereo not given) | -3&-1 | -3&-3
O=C1C(c2cccc(Br)c2)=Nc2ccccc21 | 2 | 8
Cc1ccc(C)c(N2CCN(C(=O)c3ccc4c(=O)nc5c(-c6ccccc6)n[nH]n5c4c3)CC2)c1 | -1 | -2
Cc1ccc2oc(-c3cccc(NC(=O)c4cc([N+](=O)[O-])ccc4Cl)c3C)nc2c1 | -3 | -6
O=C(CCn1ccc(=O)[nH]c1=O)N(Cc1ccccn1)CC1CCCO1 (stereo not given) | 5 | 3
COCCN=c1scc(-c2ccc(OC)cc2)n1N=Cc1ccc2c(c1)OCCO2 | 5 | 2
O=C(Nc1cccc(F)c1)C(C1CCCC1)N1CCN(C(=O)CCc2ccccc2)CC1 (stereo not given) | -3 | 5
CN(Cc1ccc2c(c1)OCCO2)S(=O)(=O)c1ccc(C(F)(F)F)cc1 | 5 | 14
Cc1ccc(CN(CCN2CCOCC2)Cc2ccc(C(O)(c3ccccc3)c3ccccc3)o2)cc1 | 3 | 6
Cc1ccc2cc(C3(O)CCN(C(=O)COc4cccnc4)CC3)ccc2n1 | -5 | -10
Cc1ccc(-c2[nH]ncc2CNCCCN(C)C)cc1 | 3 | 0
COCCOc1nc(-c2cccc(C(F)(F)F)c2)n(-c2ccc(NC(=O)c3ccc(Br)cc3)cc2)n1 | -8 | -14
CNC(=O)CN1CCN(C(=O)c2cc3c(F)cccc3[nH]2)CC1=O | 0 | 0
CCn1c(SCC(=O)Nc2sccc2C(N)=O)nnc1C1CC1 | 1 | -1
CCN(CC)CCN(Cc1ccccc1)Cc1c(C)noc1C | 1 | -1
CCCSc1nnnn1Cc1cccs1 | -5 | -4
CCN(CC)C(=O)CSc1nc(N)c2c3c(sc2n1)CCCC3 | -3 | -4
Cc1nc2sccn2c1C(=O)N1CCCC(Nc2ccc3c(c2)OCCO3)C1 (stereo not given) | 5 | 2
O=C(NCc1cccs1)c1cn(CCOc2ccc(F)cc2)c(=O)s1 | 14 | 10
Cc1ccc(CN2CCN(Cc3cc4ccccc4[nH]3)CC2CCO)cc1 (stereo not given) | 2 | -4
CC1CC(C)CC(CCS(=O)(=O)CCO)C1 (stereo not given) | -1 | 16
O=C(CCCc1cccs1)NC1CCCN(C2Cc3ccccc3C2)C1 (stereo not given) | 5 | 0
CC(C)c1cc(Oc2cccc(F)c2)nc(SCc2ccccc2Cl)n1 | -8 | 7
CCn1c(CC2CCN(C(=O)C3COCCO3)CC2)nn(C)c1=O (stereo not given) | 3 | 3
Cc1nc2ccccn2c(=O)c1NC(=O)c1ccccc1 | 5 | 2
Cc1ccc(Nc2ccc(S(=O)(=O)C(F)(F)C(F)F)cc2[N+](=O)[O-])cc1 | -3 | -6
C=CCNC(=O)NC(=O)CN(C)c1ccc(Oc2ccccn2)cc1 | 9 | 2
O=C(Nc1ccc(C2SCC(=O)N2c2ccc3c(c2)CCC3)cc1)c1cccc(Cl)c1 (stereo not given) | 8 | 7
Cc1sc2nc(CN(C)Cc3ccc(Cl)c(Cl)c3)nc(N)c2c1C | 2 | 6
COCCCN(CC(=O)N(Cc1cccn1Cc1ccc(Br)cc1)C1CCCCC1)C(=O)c1cccs1 | 1 | 15
COCCN(CCCc1ccccc1)C(=O)NCc1csc(C)n1 | -2 | 5
OC1(c2cccc(C(F)(F)F)c2)CCN(Cc2ccc3[nH]ccc3c2)CC1 | -6 | -6
CC(=O)c1cccc(-c2ccnc3c2CC(C(=O)NCc2ccc(N4CCN(C)CC4)cc2)O3)c1 (stereo not given) | 15 | 33
COc1ccc(CCC(=O)NCCc2csc3nc(-c4ccc(C)cc4)nn23)cc1 | 12 | 11
CCOC(=O)c1c(CN2CCCC2)n(-c2ccccc2)c2cc(Br)c(O)c(CN(C)C)c12 | -4 | -6
O=C(c1csc(CSc2nnc(-c3cccnc3)n2-c2cccc(Cl)c2)n1)N1CCN(C(c2ccccc2)c2ccccc2)CC1 | 1 | 1
O=C1OC(/C=C\c2cccc([N+](=O)[O-])c2)=NC/1=C/c1ccc(Br)cc1 | 0 | -2
Fc1cnc(NCCc2cccs2)nc1N1CCOCC1 | 16 | 11
CCCc1cc(NCCc2ccccc2)n2nc3nc(C)cc(C)c3c2n1 | -1 | 43
O=C(/C=C/c1ccco1)N1CCCC(N2CCN(c3cccc(Cl)c3)CC2)C1 (stereo not given) | 1 | 0
COc1ccccc1NC(=O)CSc1ccc(-c2sc(C)nc2C)nn1 | 5 | -3
CCc1nnc(NC(=O)c2cc3c(cc2[N+](=O)[O-])OCCO3)s1 | 1 | 7
CN(Cc1csc(-c2ccccc2)n1)C1CCN(S(C)(=O)=O)CC1 | 1 | 1
CCOC(=O)[C@@H]1CCCC[C@@H]1NC(=O)c1cccnc1Oc1ccc(Cl)cc1 | -1 | -3
Cc1nc(C(C)C)cc(N(C)CCc2noc(C3CC3)n2)n1 | 10 | 1
O=C(CCC1CCCN(C(=O)c2ccc(=O)[nH]n2)C1)N1CCN(Cc2ccccc2)CC1 (stereo not given) | 4 | 1
Cc1nc2ccc(F)cc2n1C1CCN(C(=O)c2ccc3c(c2)OCO3)CC1 | 26 | 15
c1cc(-c2cnc3ccccc3c2)cc(-n2cnnc2)c1 | 4 | 0
Cc1c(C(=O)N2CCN(C)CC2)oc2c1C(=O)CC(C)(C)C2 | 6 | 2
C=C(C)C(O)(C(=C)C)c1ccc(CN(Cc2cccc(OC)c2OC)C2CC2)o1 | -1 | 8

Retrieved by compound from above:
SMILES | NPYLR7 agonist | NPYLR7 agonist max-min
O=C(CCC1CCCN(C(=O)c2ccc(=O)[nH]n2)C1)N1CCN(Cc2ccccc2)CC1 (stereo not given) | 4 | 1
Cc1nc(C(C)C)cc(N(C)CCc2noc(C3CC3)n2)n1 | 10 | 1

More structures.
SMILES | NPYLR7 agonist | NPYLR7 agonist max-min
CCC1c2ccsc2CCN1CC(=O)Nc1ccccc1 (stereo not given) | 4 | 4
COc1ccc(OC)c(-c2nc3ccccn3c2Nc2c(C)cccc2C)c1 | 11 | 9
COc1ccc(CCN2CCCC(CN(C)C(=O)c3cccnc3OC)C2)cc1 (stereo not given) | -3&-1 | -5&-4
CCc1noc(C)c1C(=O)N1CCC(CCC(=O)N2CCC(Cc3ccccc3)CC2)CC1 | 3 | 1
Cc1cc(N2CCN(C(=O)COc3ccc(Cl)c(C)c3)CC2)nc(C(C)C)n1 | 12 | 16
CC(=O)Nc1cccc(-n2ccnc2-c2ccc(-c3ccn[nH]3)o2)c1 | 10 | 7
CC/C=C/CC(=O)N1CCN(CC)C(C)(C)C1 | -4 | -7
Cc1c(C(=O)C(=O)N2c3ccc(F)cc3CCC2C)c2ccccc2n1C (stereo not given) | -2 | -4
O=C(NCc1ccco1)Nc1cccc(C(=O)N2CCCCC2)c1 | -17 | -18
CC(C)[C@@H](CO)Nc1nccc2[nH]c(-c3ccccc3Cl)nc12 | -3 | -9
O=C(NC1CCN(c2ccccc2C(=O)NCc2cccnc2)CC1)c1cc(F)cc(F)c1 | -10 | 5
Cc1ccc(-n2c(SCc3ccc(C(=O)O)cc3)nnc2-c2ccc([N+](=O)[O-])cc2)cc1 | -4 | -8
Cc1nc(CCN)cc(N(C)Cc2sccc2C)n1 | 9 | 2
CCOC(=O)c1c(NC(=O)Cn2nc(C)c([N+](=O)[O-])c2C)sc(C)c1C | 1 | -3
COc1ccc(-c2nnc(SCc3ccccc3C(F)(F)F)n2C2CCCCC2)cc1 | 16 | 17
O=c1c2cc(-c3cccs3)nn2ccn1Cc1nc(-c2ccccc2)no1 | -1 | -2
CC(C)NC(=O)C1(C)CCCCN1Cc1cccc(C(F)(F)F)c1 (stereo not given) | 1 | 0
CC1=CS(=O)(=O)c2ccc(I)cc21 | 5 | 1
CCOc1ccccc1CNC(=O)N1CCS(=O)C(C)C1C (stereo not given) | -13&0 | -19&-1
COc1ccc(Cl)cc1C(=O)Nc1cc(C)nn1-c1nc(C)cc(=O)[nH]1 | 12 | 5
Cc1ccccc1CCNC(=O)C(C)Sc1ccccc1 (stereo not given) | -5 | -6
CCCCC(=O)N(C)c1c(CC)nc2c(OCCC)cccn12 | -3 | 2
Cc1ccc(NC(=O)Cn2nc3ccc(SCc4ccc(Cl)cc4)nn3c2=O)cc1 | -2 | -6
CCn1c(=O)c2c(nc3n(-c4ccc(Br)cc4)c(C)cn23)n(C)c1=O | 4 | 1
Cc1ccc2c(c1)N(Cc1cccc(C(F)(F)F)c1)C(=O)C(C)O2 (stereo not given) | 3 | -2

A portion of the library; rates above refer to the full screens.
